Screening data: PubChem BioAssay, Broad Institute
Tgondii IFNg = T. gondii growth inhibition under IFN-gamma; Toxoplasma gondii growth in IFN-gamma-treated host cells; active compounds read low; reference of the scale not given here; activity change, negative = inhibition, %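 (about 20 µM by stock and volumes)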; 69,000 tested, 3.8% active; AID 1259416;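 active means below -70%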;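 further: host cells are HeLa cells infected with Toxoplasma gondii; parasite growth read as luciferase light; one replicate is shown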
Numbers without * were called inactive; i = inactive; & = joins results of further samples. Some of the compounds tested; the hit share may differ from the screen's.

Compound	Tgondii IFNg
COCc1c(C(=O)N2CCCC3(CN(C)C(=O)O3)C2)noc1C (stereo unspecified)	-2
Cc1cc(-c2ccccc2)nc2oc3c(c12)NC(=O)CN(c1cccc(Cl)c1)C3=O	-48
Cc1c(S(=O)(=O)N(Cc2ccccn2)Cc2ccccn2)cnn1-c1ccccc1	-16
O=C(O)C1CCCN(CCC=C(c2ccccc2)c2ccccc2)C1 (stereo unspecified)	11&4
OC(c1ccccc1)(c1ccccc1)C1CCN(Cc2ncc[nH]2)CC1	-6
Cc1[nH]cnc1CN(C)C1CC(C)(C)NC(C)(C)C1	-59
COc1ccc(NC(=O)N(C)C[C@@H]2OCCCC[C@H](C)Oc3ccc(NC(=O)c4ccncc4)cc3C(=O)N([C@H](C)CO)C[C@@H]2C)cc1	i
CCCC(=O)Nc1ccc2c(c1)OC[C@H](C)NC[C@H](C)[C@@H](OC)CN(C)C2=O	50
O=C(c1cc(COc2cncc(Cl)c2)on1)N1CC(n2cccn2)C1	-6
O=C(c1ccc(-c2ccccc2)cc1)N1CCN(C2CC3CCC2C3)CC1 (stereo unspecified)	-47
CN1C(=O)NC(c2ccc(O)cc2)C2=C1CN(c1cccc3ccccc13)C2=O (stereo unspecified)	12
O=C(OCc1ccc2c(c1)OCO2)c1ccc(S(=O)(=O)N2CCOCC2)cc1	-28
Nc1nc2c(c(C(F)(F)F)n1)CCCC2	-16
CC(C)c1nccn1CC(=O)NCC1(c2ccccc2F)CCOCC1	-24
Cc1nc(N2CCCCC2)ncc1C(=O)N1CCCC2(CC1)CNC(=O)O2 (stereo unspecified)	-23
CC(C)(C)[S@@](=O)N1Cc2cc(C(=O)NCCN3CCCC3)nc(-c3cccc(-c4ccc(C#N)cc4)c3)c2[C@H]1CCO	-27
COc1ccc(-c2nc3c(s2)CN(S(=O)(=O)c2ccc(F)cc2)CC3)cc1OC	18
CC(C)Nc1ccnc(N2CCC(n3cc(-c4ccsc4)nn3)CC2)n1	40
COCCN1CCc2nc(SCc3nc(-c4ccc(OC)c(OC)c4)oc3C)[nH]c(=O)c2C1	22
CC(C)N(CCC(N)=O)C(=O)c1cc(C(F)(F)F)[nH]n1	-6
COc1cc(C)c(Cl)cc1S(=O)(=O)Nc1ccncc1	-1
O=C(NCC1(c2ccccc2F)CCCC1)C1CC2(CCNCC2)CN1 (stereo unspecified)	5
CN(Cc1cnc(N2CCOCC2)s1)Cc1ccccc1N1CCOCC1	10
COc1ccccc1-c1nc(Cc2noc(Cc3ccc(F)cc3)n2)c(C)o1	-54
CN(C)C1CCOC2(CCN(Cc3ccccc3Cl)CC2)C1 (stereo unspecified)	-4
Cc1cccc(N2CCC(NCc3c(C)noc3C)CC2)c1C	-24
O=c1oc(-c2c(Cl)cccc2Cl)ns1	27
COCCN1C(=O)N(Cc2cccc3ccccc23)C(=O)C12CCN(Cc1ccc(F)c(F)c1)CC2	-51
Cc1ccnn1CCC(=O)NCc1nnc(-c2nccc3ccccc23)o1	52
CC(C)CCn1c(=O)n(CCC(=O)N2CCCC2)c2cc(C(=O)O)ccc21	4
CN1CCCn2nc(C(=O)N(C)CCC(O)c3ccccc3)cc2C1 (stereo unspecified)	-1
CSc1nc(N)n2nc(-c3cccs3)cc2n1	80
CC(=O)Nc1ccc(C(=O)N2CCCCC2)cc1	8
CN(C)C(=O)c1cccc(-c2ccc3n(c2=O)C[C@H]2[C@H](CO)[C@@H](C(=O)NCC4CC4)N[C@@H]32)c1	3
COc1cc(O)c(C(C)=O)c(OC)c1	5
CN(Cc1nc(-c2ccccc2)no1)C(=O)C1CC2(CCNCC2)CN1 (stereo unspecified)	37
CCS(=O)(=O)Nc1ccc2c(c1)C(=O)N(C)[C@@H]1CC[C@@H](CC(=O)N[C@@H]3CCN(Cc4ccccc4)C3)O[C@H]1CO2	-18
C=CC(=O)Nc1cc(Nc2nccc(-c3cn(C)c4ccccc34)n2)c(OC)cc1N(C)CCN(C)C	-74*
C=CCOCc1nnn2c1CN(Cc1cnn(C)c1)CC2	-2
CCC(CC)n1nc(C)cc1NC(=O)CN1C(=O)COc2ccc(C)cc21	1
O=C(Cc1cc2ccccc2o1)NCc1ccc(F)cc1	-46
Cc1c(C(F)(F)F)nc(-c2ccc(CN3CCN(C)C(=O)C3)cc2)[nH]c1=O	-24
CC(=O)c1ccc(NC(=O)OC2CCSC2)cc1 (stereo unspecified)	10
CCC(C(=O)N1C[C@@H]2[C@H](C1)[C@H]1CC[C@@H]2O1)n1cccn1 (stereo partly specified)	-4
CCS(=O)(=O)N1CCC2(CC1)CN(C(=O)Nc1c(C)noc1C)[C@@H](CO)c1c2c2ccc(OC)cc2n1C	34
CN1CCCCN2[C@H](C1)[C@H](c1ccc(-c3ccc(F)cc3)cc1)[C@@H]2CO	17
NC(=O)C1(c2nc(CCc3ccccc3)nn2-c2ccccn2)CC1	-3
Cc1cc(C(=O)Nc2cccc(NC(=O)Cc3ccccc3)c2)n[nH]1	-75*
COc1ccc(-c2nnc(-c3nc(NCc4cccc(Br)c4)c4ccccc4n3)o2)cc1	91
CCOc1ccc(NC(=O)Cc2ccc(Br)cc2)cc1	42

Next structures follow:
Compound	Tgondii IFNg
CCCCNC(=S)Nc1ccc(F)cc1F	6
CC(C)NC(=O)NCC[C@@H]1CC[C@@H](NS(=O)(=O)c2ccc(Oc3ccccc3)cc2)[C@H](CO)O1	-49
Fc1ccc(CNC(=S)NC(Cc2ccccc2)c2ccccc2)cc1 (stereo unspecified)	-94*
CC(C)OC(=O)[C@@H]1CCN(C(=O)c2cscn2)[C@@H]1c1ccc(F)cc1	-3
O=C(NCCCn1ccnc1)c1cccc2ccnn12	2
COc1ccc(-c2noc(C(=O)NCc3ccc(CN4CCOCC4)cc3)n2)cc1OC	40
Cn1c(CNC(=O)c2cccc3[nH]cc(CN4CCCC4)c23)nc2ccccc21	43
Cc1c(S(=O)(=O)c2ccc(Cl)cc2)csc1C(=O)Nc1ccc(F)cc1F	-54
Cc1ccc(C2(C(=O)N3CCCC(N(C)C)CC3)CC2)cc1 (stereo unspecified)	-11
CCCC(=O)Oc1c[nH]c2ccccc12	99
CC1(C)CNC(=O)c2nc(-c3ccccc3-n3cccn3)[nH]c2C1	7
Cc1c(Cc2c(C)n(C)n(-c3ccccc3)c2=O)c(=O)n(-c2ccccc2)n1C	14
O=S1(=O)Cc2cnc(NCC3CC3)nc2[C@H]2CN(Cc3ccccc3)C[C@@H]21	-3
COc1ccc(C(=O)N2Cc3cnn(Cc4ccc(F)cc4)c3C2)c(OC)c1	-23
CCS(=O)(=O)N1CC[C@@H]2[C@@H]1CCC(=O)N2CCOC	-12
C[C@@H]1CN([C@@H](C)CO)C(=O)c2cccc(NC(=O)NC3CCCCC3)c2O[C@@H]1CN(C)Cc1ccc(C(F)(F)F)cc1	-56
CN1C(=O)c2cc(NC(=O)Nc3ccccc3Cl)ccc2OC[C@H]2O[C@H](CC(=O)O)CC[C@H]21	-40
CSc1cccc(NC(=O)Cn2c(=O)cc(C(=O)N3CCCC3)c3ccccc32)c1	5
CN(Cc1ccccc1-n1cccn1)C(=O)[C@H]1CCCO1	-21
CN1C(=O)c2cc(NC(=O)Cc3cccs3)ccc2OC[C@H]2O[C@@H](CC(=O)NCCc3ccncc3)CC[C@H]21	-2
O=C(C1CCOCC1)N1CC[C@@H]2[C@H]1c1cc(-c3cccc(F)c3)ccc1N[C@@H]2CO	1
CS(=O)(=O)NC[C@@H]1OC[C@@H]2CCN(c3ccccn3)C[C@H]21	26
COc1ccccc1-c1ccc(NCCn2cccn2)nn1	1
CN(C)CCNC(=O)c1cc2cc(S(=O)(=O)N(C)C)ccc2n1Cc1ccncc1	40
CO[C@@H]1CCN(c2nnc(C)s2)C[C@@H]1Cc1cccc(C)c1	0

(listing goes on)
Structure | Tgondii IFNg
Cc1ccccc1-c1noc(CCC(=O)N(C)Cc2nc(C3CC3)no2)n1 | 3
Clc1ccccc1-c1nc(NCCN2CCCc3ccccc32)c2ccccc2n1 | -42
CS(=O)(=O)N[C@@H]1CCN(C2CCOCC2)[C@@H]1Cc1cccnc1 | -6
Cc1cccc(C(=O)Nc2c(C(=O)NCc3ccccn3)[nH]c3ccc(C)cc23)c1 | -10
Cc1noc(C)c1NC(=O)Nc1ccc2c(c1)C(=O)N([C@H](C)CO)C[C@H](C)[C@H](CN(C)S(=O)(=O)c1ccc(F)cc1)O2 | 12
COc1ccc(C(=O)N2CCC3(CC2)Nc2ccc(Cl)cc2-n2cccc23)cc1 | 21
CSc1nc2c(cc1C#N)CCCC2 | 11
CN1CC[C@@]2(CN(c3ncc(F)cn3)C[C@H]2c2ccccc2)C1=O | -1
Nc1nc(Cl)nc2c1ncn2[C@@H]1O[C@H](CO)[C@@H](O)[C@H]1O | -16
CCCC(NC(=O)c1c(C)oc2ccc(O)cc12)c1ccc2c(c1)OCCO2 (stereo unspecified) | -51
Cc1cnc(N2CC3(CCN(S(=O)(=O)C4CC4)C3)C2)nc1 | 1
COc1ccc2c(c1)NC1(CCN(C(=O)Nc3ccc(C)c(Cl)c3)CC1)c1cccn1-2 | 332
Cn1c(Oc2ccc3c(c2)OCO3)nc2c1c(=O)n(Cc1ccccc1)c(=O)n2C | 0
Cc1ccc(CNC(=O)Cn2c(=O)cc(-c3nc(C(C)C)no3)c3ccccc32)cc1 | -20
COc1cccc(NC(=O)N2C[C@H]3C[C@H](C(=O)NCC4CC4)[C@@H](C2)O3)c1 | 6
O=C(CS(=O)(=O)Nc1cccc(C(F)(F)F)c1)Nc1cccc(C(F)(F)F)c1 | 11
Cc1ccc(C(=O)N2CCC3(CC3C(=O)NCc3ccncc3)C2)cc1C (stereo unspecified) | 73
O=C(NCC1CC1)C1CCC2(CCN(C(=O)Nc3ccccc3)CC2)O1 (stereo unspecified) | 3
CCc1noc(C)c1C(=O)N1CCC(C(=O)NCCc2ccc(Cl)cc2)C1 (stereo unspecified) | -3
COc1ccc(Cl)cc1NC(=O)COC(=O)C1CC(=O)N(c2cc(C)ccc2C)C1 (stereo unspecified) | -24
CN1C[C@@H]2C3(CCN(S(=O)(=O)C4CC4)CC3)CC[C@@]2(C(=O)N2CCCC2)C1 | -28
CCOc1ccc(-c2nc(CN(c3cccc(OC)c3)S(=O)(=O)c3ccccc3C)c(C)o2)cc1 | -18
CC(=O)N1CCC2(CC1)CC(C(=O)Nc1cccc(C#N)c1)c1ccccc12 (stereo unspecified) | 1
Cc1cccc2c3nc4ccccc4nc3n(Cc3nnc(-c4ccccc4)o3)c12 | 96
O=C(c1cc2cccnc2n(Cc2ccc(F)cc2)c1=O)N1CCN(c2ccc(F)cc2)CC1 | -95*
C/C=C/c1ccc([C@@H]2[C@@H](CO)N(C(C)=O)[C@H]2CN(CC)C(=O)CN(C)C)cc1 | -11
O=C([C@@H]1[C@@H](CO)[C@@H]2Cn3c(ccc(C4=CCCCC4)c3=O)[C@H]1N2Cc1nccs1)N1CCCCC1 | -7
Cc1ccc(-c2nc(CN3CCN(C(=O)Nc4ccc(F)cc4)CC3)c(C)o2)cc1 | 2
COc1cc(CCC(=O)N[C@H](C)Cn2c(=O)oc3ccccc32)on1 | -3
CC(=O)NC[C@@H]1[C@@H](c2ccc(-c3cccnc3)cc2)[C@@H](CO)N1C(=O)CC1CC1 | -47
CC[C@H]1N(CCOCc2ccccc2)CCC[C@@]12CCC(=O)N2 | -25
Cc1cc2occ(CC(=O)N3CCc4c(nc[nH]c4=O)C3)c2cc1Cl | -7
COc1cc(CN2CC3(CCN(C(=O)Nc4c(C)noc4C)CC3)c3c(n(C)c4cc(OC)ccc34)[C@@H]2CO)cc(OC)c1 | 285
CN1C(=O)c2cc(NC(=O)c3cnccn3)ccc2OC[C@@H]2O[C@H](CC(=O)N[C@@H]3CCN(Cc4ccccc4)C3)CC[C@@H]21 | -10
CCOc1ccc(CNc2nc(-c3nnc(-c4ccc(C)cc4)o3)nc3ccccc23)cc1 | 146
COc1cc(C)c2c(=O)cc(-c3ccccc3)oc2c1 | 470
COc1ccc(-c2nc3ccccc3n2-c2cc(C(C)(C)C)c(O)c(C(C)(C)C)c2)cc1 | -86*
O=C(NCC1COc2ccccc2O1)c1ncoc1-c1cccs1 (stereo unspecified) | -53
COc1ccc(S(=O)(=O)Nc2cccc3c2O[C@H](CN(C)CC2CCCCC2)[C@@H](C)CN([C@H](C)CO)C3=O)cc1 | 18
Cc1[nH]c2ccccc2c1C(=O)C(=O)NC1CC(=O)N(c2cccc(F)c2)C1 (stereo unspecified) | -32
COCCN1CCO[C@@H]2CN(Cc3ccc4ccccc4n3)C[C@H]2C1 | 32
CCCc1cnc(C)nc1N1CCOCC(CN(C)C)C1 (stereo unspecified) | -44
Cc1ccccc1-c1ncc(CN2CCn3cncc3C2)s1 | -5
CCc1cccc(NC(=O)Cn2c(=O)ccc3cc(S(=O)(=O)N4CCC(C)CC4)ccc32)c1 | -63
CN1C(=O)CCc2cc(NC(=O)c3cccs3)ccc21 | 86
